NPYLR7 agonist: activates Aedes aegypti NPYLR7 receptor. AID 1259423. activation, % at 10 µM. HEK293T NPYLR7/Galpha15, GCaMP6s calcium fluorescence. 270,000 compounds, 0.15% hits; in the data active = activation above about 40%;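 note: 0% = vehicle and 100% = reference agonist at the receptor; some compounds past the cut are filed as inactive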
NPYLR7 agonist max-min: further read-out of NPYLR7 agonist, marked with its call; activation, %; measured here: Max-Min RFU normalised activation; some inactives read as strong as hits;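 span of the calcium signal over five minutes; 0% = vehicle and 100% = native peptide agonist; compound fluorescence can raise it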
Active calls of the source: *; & = joins results of further samples. These rows are one share of the data. The share of hits here may be higher or lower than overall.

CC(C)c1cc(NC(=O)N2CCSC(C)(C)C2)no1 was read as NPYLR7 agonist 5 and NPYLR7 agonist max-min 3.
For COc1ccnc(NN=C2c3ccccc3-c3ccccc32)n1 the results were NPYLR7 agonist 1 and NPYLR7 agonist max-min 258.
`Cc1ccc(NC(=O)c2ccccc2)c(NS(=O)(=O)c2ccc3[nH]cc(C(=O)O)c(=O)c3c2)c1` gave NPYLR7 agonist -9 and NPYLR7 agonist max-min -14.
Screening CCOc1cccc(C=Nn2c(-c3ccccc3Cl)n[nH]c2=S)c1O returned NPYLR7 agonist 5 and NPYLR7 agonist max-min 5.
Screening C=C(C)Cn1c(=O)c2c(nc3n(-c4ccc(OCC)cc4)c(C)cn23)n(C)c1=O returned NPYLR7 agonist 8 and NPYLR7 agonist max-min 14.
Screening CC(C)c1ccc(NC2CCCN(C(=O)c3ccc4nccnc4c3)C2)cc1 (stereo not given) returned NPYLR7 agonist -2&0 and NPYLR7 agonist max-min -5&0.
For CN1CC[C@H](NC(=O)c2cnccn2)C[C@H](O)C1 the results were NPYLR7 agonist 4 and NPYLR7 agonist max-min 6.
Screening O=C(NC1CC1c1ccccc1)N1CCc2ccc(O)cc2C1 (stereo not given) returned NPYLR7 agonist 1 and NPYLR7 agonist max-min -1.
O=S(=O)(CCC1CCCO1)N1CCc2c(F)ccc(F)c2C1 (stereo not given) was read as NPYLR7 agonist -2 and NPYLR7 agonist max-min -5.
Screening Cc1c(C(=O)N(C)Cc2ccc(F)cc2)sc(=O)n1Cc1ccccc1F returned NPYLR7 agonist -3 and NPYLR7 agonist max-min -4.
`O=C(NCCc1csc(-c2ncccn2)n1)c1cnn2c1CCCC2` gave NPYLR7 agonist 3 and NPYLR7 agonist max-min 0.
COc1ccc(OC)c(CN2CCCn3cccc3C2c2cccc(F)c2)c1 (stereo not given) was read as NPYLR7 agonist -2 and NPYLR7 agonist max-min 1.

Brought forward from above: 2 entries, followed by the next part.
`O=C(NCCc1csc(-c2ncccn2)n1)c1cnn2c1CCCC2` gave NPYLR7 agonist 3 and NPYLR7 agonist max-min 0.
COc1ccc(OC)c(CN2CCCn3cccc3C2c2cccc(F)c2)c1 (stereo not given) was read as NPYLR7 agonist -2 and NPYLR7 agonist max-min 1.
For CCN(CC(=O)NC(C)C)CC(=O)NC1CCCCCCC1 the results were NPYLR7 agonist -4 and NPYLR7 agonist max-min -7.
For CC(C)C(=O)N1CCCC1(C)C(=O)Nc1ccc2c(c1)OCO2 (stereo not given) the results were NPYLR7 agonist 5 and NPYLR7 agonist max-min 1.
Screening CC(NC(=O)C1CCN(Cc2ccc3c(c2)OCO3)CC1)c1ccc(F)cc1 (stereo not given) returned NPYLR7 agonist 6 and NPYLR7 agonist max-min 10.
Cc1ccc(-c2nnc(C(C)N3CCN(Cc4ccc(C(C)C)cc4)CC3)o2)cc1 (stereo not given) was read as NPYLR7 agonist 1 and NPYLR7 agonist max-min 0.
For Cc1occc1SCc1csc(Cc2ccc(Cl)c(Cl)c2)n1 the results were NPYLR7 agonist 27 and NPYLR7 agonist max-min 26.
For CCc1cn[nH]c1C1CCCN(C(=O)c2conc2-c2ccccc2)C1 (stereo not given) the results were NPYLR7 agonist -1 and NPYLR7 agonist max-min -3.
For O=C(Cn1nc(-c2ccc(F)cc2)c2sc(N3CCCC3)nc2c1=O)N1CCCc2ccccc21 the results were NPYLR7 agonist -3 and NPYLR7 agonist max-min -7.
`O=C(C1CCCO1)N1CCC(n2cnc3cc(C(F)(F)F)ccc32)CC1` (stereo not given) gave NPYLR7 agonist 20 and NPYLR7 agonist max-min 9.
For C=C(C)Cn1c(=O)c2c(nc3n2CC(C)=NN3CCN2CCOCC2)n(C)c1=O the results were NPYLR7 agonist 3 and NPYLR7 agonist max-min 4.
`C=CCOc1ccccc1CN1CCC2(CC1)C(=O)N(Cc1cccc3ccccc13)C(=O)N2CC` gave NPYLR7 agonist 9 and NPYLR7 agonist max-min -4.
`COc1ccccc1OCC1c2ccsc2CCN1C(=O)CN(CC1CCCO1)C(=O)c1ccccc1F` (stereo not given) gave NPYLR7 agonist 5 and NPYLR7 agonist max-min 8.
For COC(=O)c1cc(S(=O)(=O)N(C)C2CCCCC2)cn1C the results were NPYLR7 agonist 3 and NPYLR7 agonist max-min -2.
`CCCN(Cc1c(C)nn(-c2ccc(F)cc2)c1Oc1cccc(F)c1)CC(O)Cc1ccccc1` (stereo not given) gave NPYLR7 agonist -3 and NPYLR7 agonist max-min 5.
CCOC(=O)C1CCCN(c2nc3c(S(=O)(=O)c4ccc(C)c(C)c4)nnn3c3ccsc23)C1 (stereo not given) was read as NPYLR7 agonist 9 and NPYLR7 agonist max-min 8.
For O=C(Nc1ccc2c(c1)OCO2)c1ccc(CSc2nnc(-c3ccccc3Cl)n2Cc2ccccc2)cc1 the results were NPYLR7 agonist -4 and NPYLR7 agonist max-min 8.
`Cc1nc2cc(NC(=O)C3CCCN(C(=O)OC(C)(C)C)C3)ccc2o1` (stereo not given) gave NPYLR7 agonist -1 and NPYLR7 agonist max-min -2.
O=C(CC1C=CCC1)N1CCN(Cc2cccc(-c3noc(-c4cccc(C(F)(F)F)c4)n3)c2)CC1 (stereo not given) was read as NPYLR7 agonist 3 and NPYLR7 agonist max-min 0.
Screening Cc1cnc2c(c1SCc1ccccn1)c(=O)n(C)c(=O)n2C returned NPYLR7 agonist 4 and NPYLR7 agonist max-min 8.
Screening N#C/C(=C\c1cccn1-c1ccc([N+](=O)[O-])cc1)c1nn(CCO)c(N)c1C#N returned NPYLR7 agonist 0 and NPYLR7 agonist max-min -3.
C#CCCCCCCCCCCCC(O)CC(O)COC(C)=O (stereo not given) was read as NPYLR7 agonist -7 and NPYLR7 agonist max-min -14.
`COc1ccc(CCc2nnc(CCC(=O)NCc3cc(F)ccc3C)o2)cc1` gave NPYLR7 agonist -3 and NPYLR7 agonist max-min -5.
For O=C(Nc1sc2c(c1C(=O)NCC1CCCO1)CCCC2)c1cccc([N+](=O)[O-])c1 (stereo not given) the results were NPYLR7 agonist 3 and NPYLR7 agonist max-min 1.
For O=C(NCCN1CCOC1=O)c1cccc2ccnn12 the results were NPYLR7 agonist 2 and NPYLR7 agonist max-min 1.
CC(C)c1csc(NC(=O)c2n[nH]c(=O)c3ccccc23)n1 was read as NPYLR7 agonist 7 and NPYLR7 agonist max-min 4.
Screening Cn1cncc1-c1nccn1CCCN1CCOCC1 returned NPYLR7 agonist -3 and NPYLR7 agonist max-min -7.
`C=C(C)Cn1c(N2CCN(Cc3c(F)cccc3Cl)CC2)nc2c1c(=O)[nH]c(=O)n2C` gave NPYLR7 agonist 0 and NPYLR7 agonist max-min 3.
`CCOC(=O)c1c(C)nn(-c2ccc(C(=O)NC3CCCC(C)C3)cc2)c1C` (stereo not given) gave NPYLR7 agonist -6 and NPYLR7 agonist max-min -10.
`O=C(Nc1cc(Cl)cc2cccnc12)C1CCCN1C(=O)c1ccccc1` (stereo not given) gave NPYLR7 agonist 6 and NPYLR7 agonist max-min 6.
CC1=NC2=C(C(=O)CC(C)(C)C2)C(c2ccccc2)C1C#N (stereo not given) was read as NPYLR7 agonist 6 and NPYLR7 agonist max-min 4.
`CCN(CC)c1ccc2cc(C(N)=O)c(=Nc3ccccc3)oc2c1` gave NPYLR7 agonist -4 and NPYLR7 agonist max-min -7.
`O=C(c1ccco1)N(Cc1nccn1Cc1ccccc1F)CC1CC1` gave NPYLR7 agonist 26 and NPYLR7 agonist max-min 30.
Screening O=C(CCC1CCN(C(=O)Cn2cccn2)CC1)N1CCC(Cc2ccccc2)CC1 returned NPYLR7 agonist 18 and NPYLR7 agonist max-min 6.
Screening CC(C)c1cc(C(=O)N2CCCC3(CN(C)C(=O)O3)C2)n[nH]1 (stereo not given) returned NPYLR7 agonist -6 and NPYLR7 agonist max-min -11.
CCc1nc(SCC(=O)NCc2ccccc2)c2oc3ccccc3c2n1 was read as NPYLR7 agonist -7 and NPYLR7 agonist max-min -11.
`O=S(=O)(c1ccccc1Cl)N1CCN(CC(OCc2ccc(C(F)(F)F)cc2)c2ccc(Cl)cc2)CC1` (stereo not given) gave NPYLR7 agonist 25 and NPYLR7 agonist max-min 14.
For N#Cc1cc2c(=O)n3ccccc3nc2n(-c2ccc(F)cc2)c1=O the results were NPYLR7 agonist 2 and NPYLR7 agonist max-min -2.
O=C1CC(c2ccc3c(c2)OCO3)CC2=Nc3ccccc3NC(c3ccncc3)C12 (stereo not given) was read as NPYLR7 agonist 18 and NPYLR7 agonist max-min 7.
O=C(O/N=C(/c1ccccc1)c1ccncc1)c1ccccc1[N+](=O)[O-] was read as NPYLR7 agonist -4 and NPYLR7 agonist max-min -5.
For O=C(Cn1nc2c(N3CCOCC3)nccn2c1=O)NCCC1=CCCCC1 the results were NPYLR7 agonist 8 and NPYLR7 agonist max-min 3.
CCN(C(=O)Nc1ccc(OC)c(F)c1)C(C)c1cccc(O)c1 (stereo not given) was read as NPYLR7 agonist 0 and NPYLR7 agonist max-min -1.
Screening O=C(Cn1ccn2nc(-c3ccccc3)cc2c1=O)NCCc1ccc(Cl)cc1 returned NPYLR7 agonist 25 and NPYLR7 agonist max-min 12.
For Cc1c(C(=O)N2CCN(C(=O)Cc3cccs3)CC2)cc(-c2ccc(Cl)cc2)n1-c1cccc(F)c1 the results were NPYLR7 agonist 5 and NPYLR7 agonist max-min 12.
`O=C(c1ccco1)N1CCSC12C(=O)N(Cc1ccccc1Cl)c1ccc(Cl)cc12` (stereo not given) gave NPYLR7 agonist 14 and NPYLR7 agonist max-min 14.
Screening O=C(Nc1ccccc1Br)N(Cc1ccc(OS(=O)(=O)c2cccc(C(F)(F)F)c2)cc1)Cc1ccco1 returned NPYLR7 agonist 22 and NPYLR7 agonist max-min 32.
Screening CNc1nc(C(=O)N2CCC(c3n[nH]c(=O)n3-c3ccccc3)CC2)cs1 returned NPYLR7 agonist 2 and NPYLR7 agonist max-min 2.
O=C([C@@H]1C[C@@H]2C=C[C@H]1C2)N(CCO)Cc1cccs1 was read as NPYLR7 agonist 0 and NPYLR7 agonist max-min 0.
For COc1cccc(-c2cc(C(=O)NC(C)C)n3nc(-c4ccccc4)cc3n2)c1 the results were NPYLR7 agonist 8 and NPYLR7 agonist max-min 30.
`Cc1cc(NC(=O)Cn2cncn2)n(-c2ccccc2)n1` gave NPYLR7 agonist 16 and NPYLR7 agonist max-min 11.
Screening COC(=O)N(C)Cc1cccc(N2CCN(C(=O)c3c(Cl)cccc3Cl)CC2)c1F returned NPYLR7 agonist 1 and NPYLR7 agonist max-min 1.
Screening Nc1ccccc1C=NCCCN=Cc1ccccc1N returned NPYLR7 agonist -10 and NPYLR7 agonist max-min -14.
`CC(C)C(C)N(Cc1ccc(F)cc1F)Cc1cccn1Cc1ccc(F)cc1` (stereo not given) gave NPYLR7 agonist 14 and NPYLR7 agonist max-min 24.
O=C(Nc1ccc2scnc2c1)c1nc2ccccc2s1 was read as NPYLR7 agonist 6 and NPYLR7 agonist max-min 10.
For Cn1ccnc1C(=O)C1CCCN(C(=O)c2cc(COc3ccccc3)[nH]n2)C1 (stereo not given) the results were NPYLR7 agonist 8 and NPYLR7 agonist max-min 1.
COc1ccccc1-c1cc(C(=O)NCCN2CCCCC2)nc2cc(-c3ccc(Cl)cc3)nn12 was read as NPYLR7 agonist 14 and NPYLR7 agonist max-min 21.
For COc1ccc(Cl)c2sc(N(CCN(C)C)C(=O)c3ccc([N+](=O)[O-])o3)nc12 the results were NPYLR7 agonist 13 and NPYLR7 agonist max-min 9.
For O=C(Nc1ccc(N2CCN(C(=O)c3cc(F)cc(F)c3F)CC2)nc1)c1ccco1 the results were NPYLR7 agonist -3 and NPYLR7 agonist max-min 7.
Screening COc1ccc2oc(=O)n(C3CCN(C(=O)c4c(F)cccc4F)CC3)c2c1 returned NPYLR7 agonist -8 and NPYLR7 agonist max-min 3.
`Cc1cc(=O)c(C(=O)N2CC(C)CC(C)C2)nn1-c1ccccc1Cl` (stereo not given) gave NPYLR7 agonist 0 and NPYLR7 agonist max-min -1.
CCC1CCc2sc(-c3nnc(-c4ccco4)o3)cc2C1 (stereo not given) was read as NPYLR7 agonist -1 and NPYLR7 agonist max-min -3.
For O=C(Nc1ccc(N2CCN(S(=O)(=O)c3ccc(Cl)s3)CC2)nc1)c1ccc(F)cc1 the results were NPYLR7 agonist 10 and NPYLR7 agonist max-min 14.

Sorted by formula weight (rising): part of the list above.
Screening Nc1ccccc1C=NCCCN=Cc1ccccc1N returned NPYLR7 agonist -10 and NPYLR7 agonist max-min -14.
CCC1CCc2sc(-c3nnc(-c4ccco4)o3)cc2C1 (stereo not given) was read as NPYLR7 agonist -1 and NPYLR7 agonist max-min -3.
O=C(Nc1ccc2scnc2c1)c1nc2ccccc2s1 was read as NPYLR7 agonist 6 and NPYLR7 agonist max-min 10.
`Cc1cc(=O)c(C(=O)N2CC(C)CC(C)C2)nn1-c1ccccc1Cl` (stereo not given) gave NPYLR7 agonist 0 and NPYLR7 agonist max-min -1.
For Cn1ccnc1C(=O)C1CCCN(C(=O)c2cc(COc3ccccc3)[nH]n2)C1 (stereo not given) the results were NPYLR7 agonist 8 and NPYLR7 agonist max-min 1.
For O=C(Nc1ccc(N2CCN(C(=O)c3cc(F)cc(F)c3F)CC2)nc1)c1ccco1 the results were NPYLR7 agonist -3 and NPYLR7 agonist max-min 7.
COc1ccccc1-c1cc(C(=O)NCCN2CCCCC2)nc2cc(-c3ccc(Cl)cc3)nn12 was read as NPYLR7 agonist 14 and NPYLR7 agonist max-min 21.
